Source: PubChem (several laboratories)
CBX7 AlphaScr: CBX7 chromodomain binding inhibitors, primary screen, biochemical, AlphaScreen; AlphaScreen His6-CBX7 / biotin-H3K27me3 peptide binding; hits give low values; normalised signal (fraction of DMSO) (no concentration beside the values); 66,000 tested, 1.1% active; AID 1224903, 2016; in the data active means normalised signal below about 0.5;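 further: 100 nL library stock added to about 20 µL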
Target sequence (O95931 whole entry, looked up): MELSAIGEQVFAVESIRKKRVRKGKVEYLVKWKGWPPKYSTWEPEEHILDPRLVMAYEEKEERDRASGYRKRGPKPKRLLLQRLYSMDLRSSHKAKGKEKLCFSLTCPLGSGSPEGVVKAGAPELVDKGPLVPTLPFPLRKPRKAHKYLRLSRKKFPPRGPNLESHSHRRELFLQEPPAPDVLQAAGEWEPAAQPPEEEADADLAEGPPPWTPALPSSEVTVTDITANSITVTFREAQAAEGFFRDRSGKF
CBX7 AlphaScr z-score: second read-out of CBX7 AlphaScr, no call of its own (marks repeat the call); z-score; measured here: z-score of CBX7 signal; some inactives read as strong as hits; reference of the scale not given here;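 same signal on another scale; lower means less binding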
An asterisk follows results filed as active.

molecule,CBX7 AlphaScr,CBX7 AlphaScr z-score
CCOc1ccccc1NC(=O)CCc1c(C)nc2cc(-c3cccc(F)c3)nn2c1C,1.1,1.3
CC(C)c1cc(C(=O)Nc2ccc(F)c(Cl)c2)no1,0.85,-1.6
Cc1ccc(NC2c3ccccc3C(=O)N2c2cccnc2)cc1C (configuration not stated),0.74,-3.5
COCCCNC(=O)Cn1nc(-c2ccccc2)c2cc(Cl)ccc21,1,0.76
CC(c1ccccc1)C1CC(=O)N(c2ccc(OC(F)(F)F)cc2)C1=O (configuration not stated),1,1.6
CCc1nn(Cc2ccc(F)cc2Cl)c2ccccc12,1.1,2.9
COc1ccc(-c2cc(C(=O)Nc3ccccc3C(F)(F)F)no2)cc1OC,1.3,2.1
Cc1cc(NCc2ccc(F)cc2Cl)n2nc(C)nc2n1,1,0.51
Cc1ccc(-c2nc(CS(=O)(=O)CC(=O)Nc3cccc(Cl)c3C)c(C)o2)cc1,1,0.02
Cc1ccn2cc(-c3cccc(S(=O)(=O)N(C)C)c3)nc2c1,1,0.2
C=CCn1c(C2CC(=O)N(Cc3ccccc3)C2)nc2ccccc21 (configuration not stated),1,0.19
COc1ccc(CCN2CC(C(=O)NC3CCCCC3)CC2=O)cc1OC (configuration not stated),0.98,-0.71
Cc1ccc(Cn2nnc3c(=O)n(CC(=O)N4CCc5ccccc54)cnc32)cc1,1,0.24
Cc1cc(NC(=O)CSCc2nc(-c3cccc(Cl)c3)oc2C)no1,0.97,-0.7
Cc1nc(-c2ccc(NC(=O)c3ccncc3)cc2)cs1,0.97,-0.28
OCCn1c(-c2ccccc2)cn2c3ccccc3nc12,0.92,-1.4
CCn1c(/C=C/c2c(C)n(C)c3ccccc23)nc2ccccc2c1=O,0.94,-0.63
Cn1c(C(=O)N2CCCC(C(=O)NCCC3=CCCCC3)C2)cc2sccc21 (configuration not stated),0.88,-3.6
O=C(O)c1cccc(Nc2ncnc3[nH]ncc23)c1,1,0.45
Cc1onc(-c2ccccc2)c1C(=O)Nc1nc2ccc(S(C)(=O)=O)cc2s1,1.1,2
O=C(Nc1nnc(Cc2c[nH]c3ccccc23)s1)c1ccc(Cl)cc1Cl,1.2,2
O=C(c1cnc(N2CCN(c3ccccn3)CC2)c2ccccc12)N1CCN(c2ccc(F)cc2)CC1,0.88,-3.1
O=C(Nc1c(C(=O)Nc2ccccc2Br)cnn1-c1ccccc1)c1ccco1,1.1,0.97
Cc1ccc(-c2noc(CCC(=O)NCCCN3CCN(c4cccc(Cl)c4)CC3)n2)cc1,1.2,1.6
CCOCCCNC(=O)c1ccc2c(c1)nc(C)n2-c1ccc(F)cc1F,1,0.86
CCOC(=O)C1CCCN(c2cc(=O)n(Cc3ccc(F)cc3)c(=O)[nH]2)C1 (configuration not stated),0.94,-1.1
CCc1ccc(-c2nc(CN3CCCC(C(=O)O)C3)c(C)o2)cc1 (configuration not stated),1,0.33
CC1CC(C)CN(C(=O)CCn2nc(-c3ccccc3)ccc2=O)C1 (configuration not stated),1.2,0.51
COc1ccccc1OCCCn1c(C2CC(=O)N(c3ccc(C)c(C)c3)C2)nc2ccccc21 (configuration not stated),1,0.16
Cc1ccc(-n2ncc(C(=O)Nc3cccc(C)c3C)c2C2CCN(C(=O)OC(C)(C)C)CC2)cc1,0.97,-0.97
CC(=O)N1CCC2(CC1)CC(=O)c1cc(OCC(=O)NCCc3ccc(Cl)cc3)ccc1O2,1.1,1.9
CCOc1cccc(N2C(=O)CC(N3CCN(c4ccccn4)CC3)C2=O)c1 (configuration not stated),1.2,1.5
CCCOc1ccccc1NC(=O)CC1Nc2cc(C)c(C)cc2NC1=O (configuration not stated),0.88,-3.3
Cc1cccc(C)c1NC(=O)NC1CCN(C2CCCCC2)C1 (configuration not stated),1.1,0.66
COc1ccc(-c2nn(C)c3sc(C(=O)N4CCOCC4)cc23)cc1OC,1.1,0.74
CCOC(=O)c1ccc(NC(=O)c2c(NCc3cccc(F)c3)sc3c2CCC3)cc1,1,0.82
COc1ccc(C(=O)Nc2cc(-c3nc4ccccc4s3)ccc2C)cc1Br,1,1.3
Cc1oc(-c2ccccc2F)nc1CS(=O)(=O)CC(=O)NCCN(C)C1CCCCC1,1,0.019
O=C(Nc1ccc2oc(-c3cc(Br)ccc3Cl)nc2c1)c1ccc(F)cc1,0.94,-1.5
COC(=O)c1sccc1NC(=O)Cn1nc(Cc2cccnc2)c2ccccc2c1=O,0.99,-0.013
Cc1ccc(CN2CCN(CC(=O)NC3CCC(C)CC3)C2=O)cc1 (configuration not stated),1,0.088
CCc1ccccc1NC(=O)CC1Nc2ccccc2NC1=O (configuration not stated),0.98,-0.14
Cc1nc(Oc2cccc(Cl)c2)c2oc3ccccc3c2n1,0.92,-1.2
Cc1ccc(CNC(=O)CCN2C(=O)C(C)Oc3ccc(C)cc32)cc1 (configuration not stated),0.88,-1.9
O=C(Nc1cccc(C(F)(F)F)c1)c1cnc(N2CCN(c3ncccn3)CC2)c2ccccc12,1.2,1.4
CCOC(=O)c1cnc2ccc(OC)cc2c1Nc1cccc(C(F)(F)F)c1,0.83,-0.76
CCOC(=O)c1ccc(Nc2nc3nonc3n3cnnc23)cc1,1.1,0.31
O=C(O)c1ccc(Cc2nc3ccccc3[nH]c2=O)cc1,0.97,-0.75
O=C(c1ccc(CNc2c(NC3CCCC3)c(=O)c2=O)cc1)N1CCCCCC1,0.93,-0.17
Cc1ccc(-c2nc3ncccc3o2)cc1NC(=O)COc1ccc(C2CCCCC2)cc1,1,0.28
COc1ccc(NC(=O)CCCS(=O)(=O)c2nc(-c3cccs3)cc(C(F)(F)F)n2)c(OC)c1,0.94,-1.3
COc1ccccc1N1CCN(c2ncc(C(=O)Nc3c(F)cccc3F)c3ccccc23)CC1,0.9,-1.4
Cc1ccc(NC(=O)c2cccc(NC3=NC4CS(=O)(=O)CC4S3)c2)cc1 (configuration not stated),0.96,-1.3
CCOC(=O)CNC(=O)c1cc(-c2ccc3c(c2)OCO3)nc2ccccc12,1.1,1.6
Cc1ccc(-c2nn(CC(=O)Nc3ccc(C(=O)N4CCCCC4)cc3)c(=O)c3ccccc23)cc1,0.73,-3.1
O=C(Nc1ccc(Cl)cc1)c1cc(S(=O)(=O)N2CCOCC2)ccc1Cl,1,0.37
COc1ccc(OC)c(C2CC(=O)c3c([nH]c(C(=O)OCCc4ccccc4)c3C)C2)c1 (configuration not stated),0.68,-4.1
COc1ccc(OC)c(NC(=O)CCc2c(C)nc3cc(-c4ccccc4OC)nn3c2C)c1,0.96,-1.4
O=C1CCc2cc(S(=O)(=O)N3CCC(C(=O)O)CC3)ccc2N1,0.99,-0.34
COCCNC(=O)c1cc(-c2ccc3c(c2)OCO3)on1,1.1,1.8

Further structures.
molecule,CBX7 AlphaScr,CBX7 AlphaScr z-score
Cn1c(=O)c(=O)n(C)c2cc(S(=O)(=O)N3CCN(c4cccc(C(F)(F)F)c4)CC3)ccc21,0.84,-2.5
O=C(CSc1nccn1-c1ccccc1)Nc1ccc(F)cc1,0.83,-3.8
CC1CCN(CCCNC(=O)Cn2nc(-c3ccc(Cl)cc3)ccc2=O)CC1,1.1,3.7
Cc1nc2cc(-c3ccc(Cl)cc3)nn2c(C)c1CCC(=O)NCc1ccc2c(c1)OCO2,1.1,2.1
Cc1ccc(C(=O)c2oc3ccccc3c2NC(=O)COc2ccc(F)cc2)cc1,1.1,0.47
CCCCOc1ccc(C(=O)Nc2ccc(S(=O)(=O)Nc3nc(C)cc(C)n3)cc2)cc1,1.1,1.4
CC1CCC(NC(=O)Cn2nc(Cc3ccncc3)c3ccccc3c2=O)CC1 (configuration not stated),1.2,2
Cc1ccc(C)c(CN2C(=O)c3ccccc3S(=O)(=O)c3ccc(C(=O)NCCN(C)C)cc32)c1,0.95,-1.3
COC(=O)c1ccc(NC(=O)c2c(NCc3cccnc3)sc3c2CCCC3)cc1,0.83,-8.8
COc1ccc(-c2[nH]ncc2Oc2ccccc2)c(O)c1,0.6,-0.53
O=C1c2ccccc2C(Nc2ccc(Br)cn2)N1Cc1ccccc1 (configuration not stated),0.58,-4.1
O=C(CC1Sc2ccccc2NC1=O)Nc1ccc(N2CCCCC2)cc1 (configuration not stated),0.92,-2.8

Six successive records already listed:
molecule,CBX7 AlphaScr,CBX7 AlphaScr z-score
Cn1c(=O)c(=O)n(C)c2cc(S(=O)(=O)N3CCN(c4cccc(C(F)(F)F)c4)CC3)ccc21,0.84,-2.5
O=C(CSc1nccn1-c1ccccc1)Nc1ccc(F)cc1,0.83,-3.8
CC1CCN(CCCNC(=O)Cn2nc(-c3ccc(Cl)cc3)ccc2=O)CC1,1.1,3.7
Cc1nc2cc(-c3ccc(Cl)cc3)nn2c(C)c1CCC(=O)NCc1ccc2c(c1)OCO2,1.1,2.1
Cc1ccc(C(=O)c2oc3ccccc3c2NC(=O)COc2ccc(F)cc2)cc1,1.1,0.47
CCCCOc1ccc(C(=O)Nc2ccc(S(=O)(=O)Nc3nc(C)cc(C)n3)cc2)cc1,1.1,1.4

Next records follow.
molecule,CBX7 AlphaScr,CBX7 AlphaScr z-score
COc1ccc(-c2noc(N3CCc4ccccc4C3)n2)cc1,1.1,2.5
O=C1CC(N2CCN(c3ccc(Cl)cc3)CC2)C(=O)N1CCc1ccccc1 (configuration not stated),0.96,-0.52
CCOC(=O)C1CCN(C(C(=O)NC2CCCC2)c2ccc(C)cc2)CC1 (configuration not stated),1.1,2.7
CCCCNc1nc(-c2ccccc2F)nc2ccccc12,1,0.069
COc1ccc(C(=O)Nc2cccc(-c3nc4ccccc4o3)c2)cc1OC,1.3,2.7
COc1cccc(C2=NOC(C(=O)N3C(C)CCCC3C)C2)c1 (configuration not stated),0.94,-0.77
CCc1ccc(N(CC)C(=O)c2cn(CC(C)C)c(=O)c3cc(OC)c(OC)cc23)cc1,0.99,-0.27
Clc1ccc(-n2ncc3c(NCCN4CCOCC4)ncnc32)cc1,1,0.17
COc1ccc(-c2cc(C(F)(F)F)n3nc(C(=O)NCc4cccnc4)c(Cl)c3n2)cc1OC,1,0.048
CCc1ccc(NC(=O)CSc2nnc(Cc3cccn3C)n2-c2ccc(C)cc2)cc1,0.78,-5.1
O=C(Nc1ccc(Cl)cc1)c1cn(-c2ccccc2)nc1-c1cccnc1,0.94,-0.67
Cc1cc(C)cc(-n2cnc3cc(C(=O)NC4CCCCC4C)ccc32)c1 (configuration not stated),0.69,-5.3

Some of the entries so far, field by field:
CCCCNc1nc(-c2ccccc2F)nc2ccccc12
- CBX7 AlphaScr: 1
- CBX7 AlphaScr z-score: 0.069
O=C1CC(N2CCN(c3ccc(Cl)cc3)CC2)C(=O)N1CCc1ccccc1 (configuration not stated)
- CBX7 AlphaScr: 0.96
- CBX7 AlphaScr z-score: -0.52

Later entries:
Under each structure: CBX7 AlphaScr | CBX7 AlphaScr z-score
Cc1nc2ccccc2c(=O)n1CCO
 : 0.93 | -1.2
O=C(Cn1nc(-c2ccccc2)ccc1=O)NCCCN1CCc2ccccc2C1
 : 1.1 | 4.1
Cc1ccc(C)c(N2CCN(C(=O)Cn3nc(Cc4cccnc4)c4ccccc4c3=O)CC2)c1
 : 0.51 | -0.65
CCC(C)NC(=O)[C@H](CSCc1ccccc1)N1Cc2ccccc2C1=O (some centres not stated)
 : 0.94 | -1.3
CC1CC(C)CN(C(C(=O)Nc2ccc(C(C)C)cc2)c2ccccc2)C1 (configuration not stated)
 : 1.1 | 0.64
CCOc1ccc2nc(NC(=O)CN(c3ccc(C)cc3)S(=O)(=O)c3cccnc3)sc2c1
 : 0.91 | -1.4
CCCCNC(=O)Cc1c(C(=O)O)[nH]c2ccccc12
 : 0.98 | -0.44
CC(NC(=O)c1csc2c1CCCC2)c1ccccc1 (configuration not stated)
 : 1 | 0.07
Cc1ccc(-c2nc3ccc(Br)cc3c(C(=O)O)c2C)cc1
 : 1.1 | 0.19
COc1ccc(-c2csc(Nc3ncccn3)n2)cc1
 : 0.98 | -0.33
CCCCN(CCCC)S(=O)(=O)c1ccc2oc(C(=O)Nc3ccc(OC)cc3)c(C)c2c1
 : 1.1 | 5.3
COc1ccccc1CC(=O)Nc1ccc2nc3n(c(=O)c2c1)CCCCC3
 : 0.98 | -0.57
Cc1c(C(=O)Nc2cccc(Cl)c2)sc2ncn(Cc3cccc(F)c3)c(=O)c12
 : 1.1 | 0.88
Cc1cccc(-n2ccnc2SCC(=O)Nc2ccc(F)cc2F)c1
 : 0.77 | -0.23
CCc1nc2ccccc2n1CC(O)COc1ccc(OC)cc1 (configuration not stated)
 : 1.1 | 0.94
CCC(=O)N1CCc2cc(S(=O)(=O)NCc3ccccc3OC)ccc21
 : 1.1 | 1.4
Cc1cc(C)cc(-n2c(CCC(=O)O)ccc2-c2ccc(F)cc2)c1
 : 1.1 | 1.7
Cc1c(Cl)cccc1-n1ncnc1-c1cccc(Cl)c1
 : 1.2 | 1.9
Cc1ccc2cc(CCNC(=O)c3cccc(Br)c3)c(=O)[nH]c2c1
 : 1 | 0.42
Nc1ccc(S(=O)(=O)Nc2nccc(/C=C/c3cccc(Cl)c3)n2)cc1
 : 1.1 | 0.68
NC(=O)CSc1nc2ccccc2n1-c1ccccc1
 : 0.98 | -0.68
CCCCCCc1c(O)nc(SCCN(CCC)CCC)[nH]c1=O
 : 1 | 0.29
CC(C)c1ccc(NC(=O)CSc2nc3ccccc3[nH]2)cc1
 : 0.76 | -3.3
Cc1cccc(-n2ccnc2SCC(=O)Nc2cccc(F)c2)c1
 : 0.78 | -0.22
COc1ccc(NC(=O)CN(C)S(=O)(=O)c2cccc3cccnc23)cc1
 : 0.82 | -2.1
Cc1ccc2c(=O)cc(-c3ccc(F)cc3)oc2c1
 : 0.81 | -2
CCn1cc(C(=O)Nc2cccc(C(F)(F)F)c2)c2cc(OC)c(OC)cc2c1=O
 : 1 | 1.1
COc1ccc(NC(=O)CN(c2ccc(OC)cc2)S(=O)(=O)c2c(C)nn(C)c2C)cc1
 : 1.2 | 1.3
Cc1ccc(OCCn2c(CCCO)nc3ccccc32)cc1
 : 0.97 | -0.14
O=C(Cn1cnc2c(nnn2Cc2ccc(F)cc2)c1=O)Nc1ccccc1F
 : 0.98 | -0.26

The list is partial; count on the stated rates, not on these rows.
